BJeLR lethal: MLPCN primary cell-based screen for lethality selective to Ras in HRASV12 cells. BJeLR (HRASV12) viability, CellTiter-Glo ATP luminescence, 48 h; reference of the scale not given here. inhibition, % (test concentration not listed). 300,000 tested, 0.17% active. AID 1554, 2009;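 active = replicate mean above 50%; inconclusive = above 50% but judged a plate artefact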;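 also: 50 nL library stock added to about 25 µL; numbers are from one replicate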
ugtP null kill: growth inhibition of ugtP-null S. aureus, primary screen, RN4220 ugtP deletion, OD600; 16 h; some inactives read as strong as hits; growth inhibition, % (test concentration not listed); 330,000 tested, 0.54% active; AID 1259309, 2017;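 active = z-score under -3 and OD600 up to 0.15 on both plates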;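 also: plate controls were untreated wells for no effect and antibiotic for full effect; wells of about 80 µL received 100 nL stock; the first replicate is given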
RN4220 kill: growth inhibition of S. aureus RN4220, primary screen, OD600; 16 h; inhibition, % (test concentration not listed); 330,000 tested, 0.33% active; AID 1259311, 2017;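 active = z-score of -3 or lower and OD600 up to 0.18 on both plates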;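 also: plate controls were untreated cells for no effect and reference antibiotic for full effect; stock transfer was 100 nL into about 80 µL; one replicate is shown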
PrP UTR inh: inhibition of PrP 5' UTR reporter expression; cell-based PrP 5' UTR mRNA reporter, plate reader; inhibition, % (test concentration not listed); 340,000 tested, 0.35% active; AID 488862, 2010;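 active = every replicate at 50% or more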;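 also: 0 = median of the neutral control wells; tested in H4 reporter cells; numbers are from one replicate; inactives centre near -14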
Mtb hypoxia inh: PubChem AID 1159583 | M. tuberculosis hypoxia-regulated fluorescent reporter, fluorescence | fluorescence inhibition, % (no concentration beside the values) | 300,000 tested, 0.1% active;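 active = 35 to 45% if threefold the growth effect, above 45% if 1.5-fold the growth effect; inactive = the rest, general growth blockers included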;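 also: wells of about 50 µL received 100 nL stock; 0% = vehicle wells and 100% = reference inhibitor wells; whole bacteria with a GFP reporter of the hypoxia response; strong numbers were not always called active; many hits fall short of the cut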
Bead autofluor: flagged as autofluorescent in microsphere protease counterscreen; compound autofluorescence counterscreen, microsphere flow cytometry; hits give high values; 360,000 tested, 3.1% active; fluorescence intensity (test concentration not listed);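 active = at least 3 SD above the mean of all compounds, about 16000 in these data; inconclusive = too few beads counted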;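 also: 100 nL of 1 mM stock went into each well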
Mtb hypoxia inh growth: recorded beside Mtb hypoxia inh, whose call it bears; growth inhibition, %; measured here: M. tuberculosis growth (absorbance);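 0% = vehicle and 100% = reference antibiotic; read after six days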
* hit, by the source's call; ? = inconclusive; nt = no result given.

Molecule	BJeLR lethal	ugtP null kill	RN4220 kill	PrP UTR inh	Mtb hypoxia inh	Mtb hypoxia inh growth	Bead autofluor
COc1ccc(NC(=O)c2ccc(-c3nn(C)c(=O)c4ccccc34)cc2)cc1	-5	3	2.6	-45	-2	-3	4661
O=P(OC1CCS(=O)(=O)C1)(c1ccccc1)c1ccccc1 (centres undefined)	3	-3	2.1	-29	1	7	8695
CCC1=NN2C(=N)/C(=C/c3ccc(OS(=O)(=O)c4ccccc4)c(OC)c3)C(=O)N=C2S1	-5	1	-2.4	-30	7	-6	3931
CCCNC(=O)Nc1cccc(C(=O)OC)c1	0	6	-0.9	-25	5	0	4455
COC(=O)C1=C(c2c(C)noc2C)CC2CCC1N2C(=O)NC1CC1 (centres undefined)	nt	7	5.8	nt	1	11	nt
COc1ccc(C(C)=O)cc1COC(=O)CNC(=O)c1ccccc1F	-23	7	4.8	-13	0	3	2576
CCn1c(SCC(=O)c2ccc(Cl)cc2)nnc1-c1cccs1	1	-10	32	-12	7	12	3980
CCOC(=O)c1[nH]c(C(=O)O)c(CCC(=O)OC)c1C	9	2	1.6	-18	-3	-6	5980
CCOc1ccccc1N1CCN(C(=O)c2cccs2)CC1	-11	7	6.6	-32	4	20	3463
CC(=O)NC(C(=O)OCC(=O)N(c1ccccc1)c1ccccc1)C(C)C (centres undefined)	-7	3	2.9	-8	8	-7	4322
O=S(=O)(c1ccc(F)cc1)c1nc(-c2ccccc2)oc1N1CCOCC1	-1	3	0.1	-23	4	16	5666
Cc1cc(C)c2c(n1)sc1c(=O)n(CC(=O)c3ccccc3)cnc12	-4	17	8.3	-41	17	15	4423

Next results follow.
Molecule	BJeLR lethal	ugtP null kill	RN4220 kill	PrP UTR inh	Mtb hypoxia inh	Mtb hypoxia inh growth	Bead autofluor
Nc1ccc(C(=O)O)cc1S(=O)(=O)O	3	-1	5.9	-31	14	-2	4415
COc1ccccc1NC(=O)Nc1ccc(S(=O)(=O)Nc2onc(C)c2C)cc1	nt	0	3.7	-7	10	14	3891
CCCc1nnc(NC(=O)c2cccs2)s1	-8	12	4.0	-8	9	0	6838
O=C(Nc1ccccc1)Nc1nnc(-c2cccs2)s1	5	-2	6.8	-110	-2	5	2239
CCOC(=O)N1CCN(C(=O)c2ccc(C#CC3(O)CCCCC3)cc2)CC1	6	3	5.6	-8	nt	nt	4332
COc1cc(NC(=O)c2cccs2)c(OC)cc1NC(=O)c1ccco1	0	-4	16	-3	7	11	7975
COC(=O)c1ccccc1NC(=O)c1cn(-c2ccc(C)c(C)c2)c(=O)c2ccccc12	-6	-26	-0.7	-12	nt	nt	2480
O=C(COC(=O)c1ccc(CNS(=O)(=O)c2ccc(F)c(Cl)c2)cc1)NC1CCCCCCC1	7	-12	12	-34	7	2	2453
COc1ccc(C=O)cc1COc1ccc2c(c1)OCO2	nt	7	12	-8	15	4	6832
CCCCSc1nc(O)c(Cc2ccccc2)c(=O)[nH]1	-8	-8	2.9	2	3	7	3779
Cc1cc(NC(=O)CSc2ccc3nnc(-c4cccnc4)n3n2)no1	-4	9	1.9	-8	3	6	5782
CC(OC(=O)CCC(=O)c1ccccc1)C(=O)Nc1ccc(F)cc1 (centres undefined)	-8	4	2.4	-12	2	12	?

New compounds follow.
Molecule	BJeLR lethal	ugtP null kill	RN4220 kill	PrP UTR inh	Mtb hypoxia inh	Mtb hypoxia inh growth	Bead autofluor
Cc1cccc(C(C)C)c1NC(=O)CN(C)Cc1cccc(F)c1	2	3	2.0	-21	2	9	2007
CC(=O)Nc1ccccc1C(=O)C(=O)Nc1cccc(C(=O)NC2CC2)c1	1	4	3.9	-28	-5	4	1849
O=C(Cc1nnc(NC(=O)c2ccccc2)s1)NN=Cc1ccc(O)cc1	nt	4	-2.1	nt	0	6	nt
CC(=NNc1nc(C)cc(-c2ccccc2)n1)c1ccc(F)cc1	nt	-4	1.5	nt	1	3	nt
O=C(NNc1cc(N2CCOCC2)nc(N2CCOCC2)n1)c1ccc(Cl)c(Cl)c1	3	2	1.9	-14	2	-6	2492
COc1ccc(NC(=O)CCN2C(=O)C3CC=CCC3C2=O)cc1S(=O)(=O)N1CCCCC1 (centres undefined)	nt	10	5.0	-19	3	10	4157
CC(C)Oc1ccccc1C1CC(=O)Nc2cc3c(cc21)OCCO3 (centres undefined)	64*	-6	-0.3	61*	5	8	?
COc1cc(C(=O)NN=Cc2ccc(OC(=O)c3cccc(C)c3)cc2)ccc1O	nt	10	-1.2	nt	10	2	nt
O=C(COC(=O)c1cnccn1)NC(=O)c1ccccc1	-1	-4	-0.1	-23	-2	8	?
COC(=O)C1=C(c2ccc(S(C)(=O)=O)cc2)C[C@@H]2CC[C@H]1N2C(=O)NCc1ccccc1	-2	nt	nt	-29	nt	nt	3157
CCOC(=O)/C(=N\Nc1ccccc1Cl)N(C)C1CCS(=O)(=O)C1 (centres undefined)	7	nt	nt	-18	nt	nt	4581
CCOc1cc(-c2cc(-c3ccc(N)cc3)nc(N)c2C#N)ccc1O	-4	-21	12	9	nt	nt	4685

Next entries follow:
Every second line gives: BJeLR lethal | ugtP null kill | RN4220 kill | PrP UTR inh | Mtb hypoxia inh | Mtb hypoxia inh growth | Bead autofluor
Cc1cccc(NC(=O)CNC(=O)N2CC(=O)Nc3ccccc32)c1C
 : 3 | -4 | -1.3 | -17 | 6 | 3 | 4636
Oc1c(CN2CCOCC2)cc(COCc2ccccc2)c2cccnc12
 : 16 | 3 | 6.3 | 10 | 9 | 5 | 1859
COc1ccc(/C=C/C(=O)O)cc1S(=O)(=O)NCc1cccnc1
 : -15 | 13 | 6.4 | 5 | 9 | 4 | 4457
COc1ccc(CCNC(=O)CNC(=O)Cn2cnc3sc(C)c(C)c3c2=O)cc1OC
 : 1 | 6 | 0.3 | -43 | 3 | -9 | 2082
COC(=O)C1=C(C)N(CCCC(=O)O)C(=O)NC1c1ccc([N+](=O)[O-])cc1 (centres undefined)
 : -2 | -1 | 8.1 | -28 | 9 | 5 | 3584
COc1ccccc1/C=C1\SC(=S)N(NS(=O)(=O)c2ccc(C)cc2)C1=O
 : -9 | 81 | 96* | -2 | -19 | -7 | 3813
COc1ccccc1C(=O)Nc1nc2cc3c(cc2s1)OCO3
 : 1 | 12 | -0.5 | -114 | 4 | 10 | 5261
Cc1onc(-c2ccccc2Cl)c1C(=O)NCC1CCCO1 (centres undefined)
 : -2 | 5 | 1.8 | -21 | 5 | 3 | 7285
CCN(CC)Cc1c(C(=O)N/N=C(\C)c2ccncc2)nnn1-c1nonc1N
 : -1 | nt | nt | -20 | nt | nt | 2979
CC(=O)NC(CCS(C)(=O)=O)C(=O)Nc1cccc(C(C)=O)c1 (centres undefined)
 : 1 | 1 | 4.0 | -6 | -2 | 1 | 10437

(continued)
Every second line gives: BJeLR lethal | ugtP null kill | RN4220 kill | PrP UTR inh | Mtb hypoxia inh | Mtb hypoxia inh growth | Bead autofluor
COc1ccccc1C(CNC(=O)CNC(=O)c1ccc(Cl)c(Cl)c1)N1CCCC1 (centres undefined)
 : nt | 7 | 5.6 | -19 | 7 | 0 | 4434
CCc1nnc(NC(=O)c2nc3nc(C)cc(C)n3n2)s1
 : -10 | -6 | -19 | -2 | -13 | -2 | 2479
Cc1ccc(CC(=O)N2CCN(C)CC2)cc1
 : -2 | 2 | 1.5 | -10 | -2 | -3 | nt
Cc1cccc(CN2CCN(CC(=O)NCc3cccs3)C2=O)c1
 : 2 | -10 | -4.0 | -6 | 5 | 14 | 4029
Cc1nnc(SCC(=O)Nc2cc(S(C)(=O)=O)ccc2Cl)n1Cc1ccccc1
 : -5 | 2 | 4.4 | -16 | 7 | 4 | 5290
Cc1cccc(OCCCC(=O)Nc2ccc3c(c2)OCO3)c1
 : -8 | 1 | 6.3 | -27 | -6 | -11 | 10675
C/C(=N\NC(=S)Nc1ccc(C)cc1)c1cc2ccccc2o1
 : -12 | nt | nt | -1 | nt | nt | 4233
COc1ccc(-c2csc(NC(=O)Nc3ccccc3)n2)cc1
 : -9 | -1 | 1.0 | 1 | -2 | -1 | 2909
CCCCn1c(N)c(N(CC(C)C)C(=O)C2CCN(C(=O)c3ccc(Cl)cc3)CC2)c(=O)[nH]c1=O
 : -1 | 4 | 1.9 | -1 | -5 | 3 | 6237
COC(=O)c1[nH]c2ccccc2c1NC(=O)CN1CC(C)OC(C)C1 (centres undefined)
 : 3 | 1 | -0.3 | -14 | nt | nt | 4675

(next part)
Every second line gives: BJeLR lethal | ugtP null kill | RN4220 kill | PrP UTR inh | Mtb hypoxia inh | Mtb hypoxia inh growth | Bead autofluor
O=C(/C=C/c1ccccc1Cl)Nc1cccc(S(=O)(=O)NC2=NCCCCC2)c1
 : 1 | nt | nt | -36 | nt | nt | 2254
CCN(CC)CCOC(=O)c1ccc(N/C=C(/C#N)c2nc(-c3cc4ccccc4oc3=O)cs2)cc1
 : 0 | 15 | 1.3 | 3 | -2 | 11 | 4136
CCCCC(CC)C(=O)Nc1ccc(C#N)cc1 (centres undefined)
 : 0 | 4 | 4.2 | -24 | 4 | 2 | 5730
COc1ccc(NC(=O)CN(C)C(=O)CSCC(=O)Nc2ccc(C)cc2)cc1
 : 4 | nt | nt | -4 | nt | nt | ?
COc1ccccc1NC(=O)C(C)OC(=O)CCNS(=O)(=O)c1cccc(C(F)(F)F)c1 (centres undefined)
 : nt | -4 | 6.3 | -35 | -2 | 7 | 4025
CCOC(=O)c1c(C)oc2c1c(C=NCc1ccccn1)c(O)c1ccccc12
 : nt | 2 | 14 | -17 | -2 | 4 | 1954
COc1ccc2c(c1)c(C(=O)CN1CCc3ccccc3C1)c(C)n2C
 : 3 | -1 | 4.0 | -1 | 3 | 7 | 3894
O=C(Cn1cnnn1)Nc1cccc(S(=O)(=O)N2CCCCC2)c1
 : -4 | 0 | 4.6 | -19 | 17 | -2 | 3251
COc1ccc(NN=C(C)c2cnnc(-c3ccccc3)n2)cc1
 : nt | -2 | 1.7 | nt | 9 | 2 | nt
COC(=O)c1c(-c2ccccc2Cl)noc1/C=C/N(C)C
 : -14 | 15 | 4.9 | -9 | -8 | -2 | 2301

(next part)
Every second line gives: BJeLR lethal | ugtP null kill | RN4220 kill | PrP UTR inh | Mtb hypoxia inh | Mtb hypoxia inh growth | Bead autofluor
CCOc1ccc(N(CC(=O)NCc2ccco2)S(C)(=O)=O)cc1
 : -3 | 3 | 5.0 | -18 | 10 | 12 | 3344
O=C(CCc1ccccc1)NNC(=S)NCc1ccc(Cl)cc1
 : 5 | -3 | 2.9 | -30 | 16 | 15 | 5083
COc1ccc(C)cc1NC(=O)c1cc2c(CO)cnc(C)c2oc1=N
 : 6 | 4 | -0.5 | -15 | nt | nt | 5694
CCOP(=O)(OCC)C(O)c1ccc(Br)cc1 (centres undefined)
 : 17 | 11 | 0.1 | -24 | 5 | -7 | 2417
CN1C(N)=NC(=O)/C1=C/c1ccccc1F
 : 3 | 2 | 0.2 | -7 | 15 | -1 | 2880
COC(=O)c1ccc(-c2ccc(Cl)cc2)nc1C
 : -3 | 17 | 3.7 | -75 | -1 | 10 | 2494
CCn1c(COc2ccc(C)cc2)nnc1SCC(=O)Nc1ccc(S(N)(=O)=O)cc1
 : 3 | 3 | 3.0 | -8 | nt | nt | 2776
CCCCn1c(SCC(=O)N2CCCC2)nc2c1c(=O)n(C)c(=O)n2C
 : -17 | -10 | 1.0 | nt | 3 | 6 | 7822
CN(C)C=NC1=C(C#N)C(c2cccs2)c2ccc3ccccc3c2O1 (centres undefined)
 : nt | 5 | 12 | nt | 8 | 3 | nt
CCOc1nc(NCCO)nc(Nc2ccc([N+](=O)[O-])cc2)n1
 : -10 | nt | nt | -1 | nt | nt | 2062
Cc1nn(-c2ccccc2)c(C)c1C=NNC(=O)CSc1nc2ccccc2c(=O)n1-c1ccccc1
 : nt | -7 | -3.3 | nt | 13 | 10 | nt
Cc1ccc(S(=O)(=O)N2CCOCC2)cc1NC(=O)COC(=O)CNC(=O)c1ccc(Cl)cc1Cl
 : 1 | 3 | 0.1 | -14 | 3 | 1 | 6366

Screening data: PubChem BioAssay, several laboratories
